SARS PLP yeast = qHTS of Yeast-based Assay for SARS-CoV PLP | S. cerevisiae expressing SARS-CoV PLpro, growth rescue; control for the full effect not named in the record | Potency, µM (doses to about 32.9 µM), without a hit: top-dose activity, positive = growth rescue | actives 0.19% (n = 330,000); active means well fitted rising curve with a large enough effect; inconclusive means small, poorly fitted or top-dose-only effect; inactive means no such curve, though single readings can be large or run the other way; also: 0% is about no effect; nearly all actives have a fitted effect of over 55% in size; growth read by luminescence after 48 h
LASV entry inh = qHTS for Inhibitors of binding or entry into cells for Lassa Virus; Lassa virus pseudotype entry inhibition, cell reporter; control for the full effect not named in the record; actives 1.2% (n = 300,000); AID 540256, 2011; Potency, µM (doses to about 37.9 µM), for the others: top-dose activity change, negative = inhibition, actives largely listed as inhibitors; active means well fitted inhibition curve with a large enough effect; inconclusive means small, poorly fitted or top-dose-only effect, or effect the other way; inactive means flat fitted curve, though single readings scatter; tested in HEK293 cells; also: % is scaled to controls: 0 for no effect and ±100 for the full control effect; nearly all actives have a fitted effect of over 50% in size; luciferase read-out
StopGo reporter = High Throughput Screening for Foot and Mouth Disease Virus Antivirals. human cells with a luciferase reporter of 2A StopGo recoding; control for the full effect not named in the record. actives 1.2% (n = 410,000). AID 1159524, 2015. Potency, µM (titrated, usually from 57.9 µM), for the others: top-dose signal change, negative = less light; active = well fitted falling curve with a large enough effect; inconclusive = small, poorly fitted or top-dose-only effect; inactive = no such curve, though single readings can be large or run the other way; tested in HEK293T cells; also: % is scaled to controls: 0 for no effect and ±100 for the full control effect; nearly all actives have a fitted effect of over 45% in size; luciferase light after 4 h
Cruzain inh noDet = qHTS Assay for Promiscuous and Specific Inhibitors of Cruzain (without detergent); purified cruzain, Z-FR-AMC fluorescence, no detergent; Potency, µM, for the others: max response, negative = inhibition, hits mostly inhibitors; AID 1476, 2009; Cruzipain (Trypanosoma cruzi), P25779; actives 2.3% (n = 200,000);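 also: plate controls were enzyme without inhibitor for no effect and buffer without enzyme for full effect; nearly all actives have a fitted effect of over 40% in size; top concentration of the series not given in the record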
Target sequence (P25779 123-467 limits assumed): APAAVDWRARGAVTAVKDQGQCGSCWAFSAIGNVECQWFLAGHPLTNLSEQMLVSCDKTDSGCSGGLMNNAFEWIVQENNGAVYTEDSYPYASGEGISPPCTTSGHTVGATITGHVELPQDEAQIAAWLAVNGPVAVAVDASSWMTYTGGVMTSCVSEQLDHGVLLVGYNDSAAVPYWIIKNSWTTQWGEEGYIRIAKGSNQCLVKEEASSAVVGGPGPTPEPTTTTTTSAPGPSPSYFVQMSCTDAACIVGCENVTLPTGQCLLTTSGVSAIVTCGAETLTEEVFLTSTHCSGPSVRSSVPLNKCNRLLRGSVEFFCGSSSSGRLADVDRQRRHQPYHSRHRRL
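Detergent-free condition (0.00005% Triton X-100) in acetate buffer pH 5.5 with DTT. 1.5 nM enzyme and compound were pre-mixed 15 min, then 2 uM Z-FR-AMC substrate added; reaction progress from fluorescence change between first and third reads (60 s).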
Marburg entry inh = qHTS for inhibitors of binding or entry into cells for Marburg Virus. actives 1.8% (n = 300,000). Marburg virus pseudotyped entry inhibition, cell reporter; control for the full effect not named in the record; about a third of the inactives were read at about 46 µM. AID 540276, 2011. Potency, µM (doses to about 37.8 µM), for inactives: at the top dose activity change, negative = inhibition, most hits filed as inhibitors; active = well fitted inhibition curve with a large enough effect; inconclusive = small, poorly fitted or top-dose-only effect, or effect the other way; inactive = flat fitted curve, though single readings scatter; tested in HEK293 cells; about a fifth of its hits are not listed in these tables; also: % is scaled to controls: 0 for no effect and ±100 for the full control effect; luciferase read-out
RE007 growth inh = qHTS Assay for Inhibitors of the HIV-1 protein Vpr. S. pombe RE007 Vpr strain, BacTiter-Glo ATP luminescence, 24 h; control for the full effect not named in the record. actives 0.21% (n = 360,000). Potency, µM (doses to about 92.2 µM), for inactives: at the highest dose activity change, negative = less growth. AID 651644, 2012; active = well fitted falling curve with a large enough effect; inconclusive = small, poorly fitted or top-dose-only effect; inactive = no such curve, though single readings can be large or run the other way;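 also: % is scaled to controls: 0 for no effect and ±100 for the full control effect; nearly all actives have a fitted effect of over 50% in size; the assay follows cell death caused by Vpr and the record does not say whether a fall means rescue or toxicity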
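Fission yeast RE007 carrying one integrated HIV-1 vpr copy, seeded at OD 0.01 in PMG+AL medium with 23 nL pinned compound. Grown 24 h at 30 degrees; viability read by BacTiter-Glo luminescence after 5 min.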
Cruzain inh Det = qHTS Assay for Promiscuous and Specific Inhibitors of Cruzain (with detergent); purified cruzain, Z-FR-AMC fluorescence, 0.01% Triton; Potency, µM, without a hit: max response, negative = inhibition, hits mostly inhibitors; actives 0.43% (n = 200,000); AID 1478, 2009;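 also: plate controls were neutral wells for no effect and buffer without enzyme for full effect; nearly all actives have a fitted effect of over 40% in size; top concentration of the series not given in the record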
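Enzyme 1.5 nM, Z-FR-AMC 2 uM, NaOAc 100 mM pH 5.5, DTT 5 mM, Triton X-100 0.01%; 15 min RT compound preincubation; kinetic ex360/em450, 60 s delta.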
NS1 inh = qHTS Assay for Inhibitors of Influenza NS1 Protein Function; S. cerevisiae slowed by influenza A NS1, growth recovery by OD600; Potency, µM (series often up to 46.1 µM), for the others: top-dose activity, positive = more growth; actives 0.4% (n = 270,000); active means well fitted rising curve with a large enough effect; inconclusive means small, poorly fitted or top-dose-only effect; inactive means no such curve, though single readings can be large or run the other way; also: nearly all actives have a fitted effect of over 50% in size
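Read-out: OD600 growth recovery of NS1-expressing budding yeast. Cells grown overnight at 30C in -URA glucose medium, washed, resuspended and diluted 1:100 in 2% galactose assay medium, pH 6.0. Same strain lacking NS1 served as positive control.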
An asterisk follows results filed as active; ? = inconclusive; . = no result given; & = joins results of further samples; [ ] = dose if it differs, or a comment. Unless noted, calls follow the shape of the dose curve; as a rule, active = well fitted curve in the direction sought with a large enough effect; inconclusive = small, poorly fitted or top-dose-only effect, or another doubt; inactive = no such curve, though single readings can be large; an effect the other way counts as inactive or inconclusive. Potency is read from the fitted curve at half-maximal effect.

SMILES	SARS PLP yeast	LASV entry inh	StopGo reporter	Cruzain inh noDet	Marburg entry inh	RE007 growth inh	Cruzain inh Det	NS1 inh
Cc1ccc(C(=O)CSC2=NC(N)=C(C#N)C3(CCCCC3)C2C(N)=O)cc1 (centres undefined)	2.5%	-3.5%	-6.1%	13.3%	-0.3%	18.2%[3.69 µM]	-4.6%	?
Cc1cccc(NS(=O)(=O)c2ccc(C)c(C(=O)NCc3ccccn3)c2)c1	-19.6%	-24.8%	7.4%	.	-12.5%[46.1 µM]	-23.9%	.	.
O=C1CC(C(F)(F)C(F)(F)C(F)(F)C(F)(F)F)=Nc2ccccc2N1	-8.2%	-1.3%	-7.4%	1.3%	-19.0%	-3.4%	-2.9%	15.4%
O=C(/C(=C/c1ccc(Cl)cc1)c1nc2ccccc2[nH]1)c1ccccc1	-38.3%	4.11µM*	?	?	?	-3.6%	-4.1%	-108.3%
CC(=O)N/C(=C\c1ccccc1)C(=O)OCC(=O)Nc1cc(S(=O)(=O)N(C)C)ccc1Cl	2.9%	5.7%	-23.7%	.	3.7%[46.1 µM]	-8.1%	.	.
CCOC(=O)c1cc(C)n(CC2CCC(C(=O)Nc3ccc(C(=O)OC)cc3)CC2)c1C (centres undefined)	.	0.2%[46.1 µM]	?	6.8%	.	.	-6.0%	.
S=C(NCc1ccccc1Cl)NC1CCCC1	-24.0%	-20.5%	14.4%	3.1%	-18.3%	-5.0%	-1.6%	-5.7%
CCOC(=O)c1cc(C)sc1NC(=O)CSC1=NCCS1	-1.0%	?	?	.	-13.6%[46.1 µM]	5.8%	.	-21.1%
CCc1ccccc1NC(=O)c1cccc(N2C(=O)C3C4CCC(C4)C3C2=O)c1 (centres undefined)	4.2%	-0.9%	-3.4%	3.3%	0.2%	-10.0%	3.9%	-5.2%
O=C(COc1ccccc1Cl)Nc1cc(Cl)ccc1Oc1ccccc1	3.4%	-2.4%	-14.7%	-24.2%	-4.8%	-0.5%	1.2%	4.5%
FC(F)(F)c1cccc(-c2nnn3c2nc(NC2CCCCC2)c2ccccc23)c1	.	12.0%[46.1 µM]	?	?	0.3%[46.1 µM]	.	-1.9%	.
Cc1nc(N=C(N)N)nc2ccccc12	-1.3%	?	?	.	.	-2.6%	.	.
Cc1ccc(CCNS(=O)(=O)c2ccc3c(c2)NC(=O)C(C)C(=O)N3)cc1 (centres undefined)	0.1%	.	0.0%	.	.	6.3%	.	2.0%
Cc1ccc(NS(=O)(=O)c2ccc3c(c2)NC(=O)CCS3)c(Br)c1	-0.8%	-1.1%&-29.3%[46.1 µM]	-9.7%&-25.2%	-2.6%	-14.2%&-14.2%[46.1 µM]	-10.6%	-4.9%	9.9%
COC(=O)C(NC(=O)c1ccco1)(Nc1nc(C2CC2)cs1)C(F)(F)F (centres undefined)	1.1%	-1.1%	13.3%	-3.9%	?	?	-10.8%	6.6%
Cc1cc(C(=O)Cn2nc(C(=O)O)c3ccccc3c2=O)c(C)n1-c1ccc(F)cc1	-0.3%	10.7%	-15.1%	25.1µM*	?	11.8%	-8.6%	-1.0%
O=C(O)c1ccc(COc2ccc3ccccc3c2/C=C2/NC(=O)N(c3ccccc3)C2=O)cc1	-38.7%	9.5%	-23.9%	?	-6.3%	-0.8%	?	?
O=C(Oc1ccccc1-c1csnn1)c1cccs1	6.1%	9.7%	-5.2%	.	26.3%[46.1 µM]	2.5%	.	.
Nc1ncnc(Nc2cccc(F)c2)n1	-0.3%	24.6%	44.2%[activator]	.	?	17.7%	.	-4.7%
CCCCn1c(SCC(=O)N2CCCC2=O)nc2cc(S(N)(=O)=O)ccc21	3.5%	0.7%	-13.0%	.	-0.1%	-19.6%	.	.
COc1cc2c(cc1OC)C13CCN4CC5=CCOC(CC(=O)O)C(C5CC41)C3N2 (centres undefined)	.	4.9%[46.1 µM]	-9.2%	.	16.7%	-2.7%	.	.
C=CCNC(=O)COC(=O)CCC(=O)c1cccs1	-1.1%	-3.0%	2.4%	.	?	-8.7%	.	4.1%
CCCn1c(CCC(=O)O)ccc1-c1cccs1	3.5%	-1.6%	-3.8%	6.9%	1.9%[46.1 µM]	0.4%	-5.4%	-34.0%
O=C(COc1ccccc1)NC(NC(=S)Nc1ccccc1C(=O)O)C(Cl)(Cl)Cl (centres undefined)	4.6%	1.9%	10.1%	-7.2%	?	-17.6%	-7.5%	-1.4%
O=C(CCCOc1ccccc1)N1CCCc2ccccc21	.	6.0%	.	1.3%	6.6%	-6.6%	-0.7%	-22.0%
CN1CC2(C(=O)c3ccccc3)CN(C)CC(C(=O)c3ccccc3)(C1)C2	3.9%	-0.1%	13.3%	1.2%	?	-0.5%	3.9%	2.6%
O=C(Nc1ccc2c(c1)Cc1ccccc1-2)c1ccc(Br)o1	14.0%	?	45.2%[activator]	?	3.6%	5.0%	-3.4%	11.2%
CCC1(CC)NC(=O)N(CC(=O)Nc2ccc(C)cc2C)C1=O	-6.8%	2.7%	0.8%	.	?	5.6%	.	.
Cc1ccc(/C(O)=C2\C(=O)C(=O)N(C)C2c2ccc(Br)cc2)cc1 (centres undefined)	-0.5%	.	0.7%	.	.	3.5%	.	-15.4%
O=C(Nc1ccc2sccc2c1)c1cccc(N2C(=O)CCC2=O)c1	-0.1%	16.5%	53.4%[activator]	.	30.4%	-11.7%	.	-6.0%
Cn1c(CNC(=O)C2CCC(=O)N(CCc3cccc(F)c3)C2)nc2ccccc21 (centres undefined)	6.5%	7.8%[46.1 µM]	1.3%	.	18.1%[46.1 µM]	10.1%	.	11.4%
CCCCOc1ccc(-c2nnn(CC(=O)NCCc3c[nH]c4ccccc34)n2)cc1	-0.8%	-22.5%	17.0%	-0.6%	23.1%	-4.2%	-10.1%	15.6%
Cc1cccc(-n2nnc(C(=O)NCc3ccccc3)c2N)c1	27.5%	8.2%	7.0%	-3.6%	?	-10.2%	-4.8%	-11.4%
COc1ccc(CCNC(=O)C(=O)NCC2OCCN2S(=O)(=O)c2cc(F)ccc2F)cc1 (centres undefined)	-1.2%	.	?	.	.	-19.2%	.	-3.2%
N#Cc1nc(-c2ccc(F)cc2)oc1N1CCN(C(=O)c2ccco2)CC1	?	-9.5%	-6.7%	.	-18.2%	-0.8%	.	3.8%
O=C(CNS(=O)(=O)c1cccc2nsnc12)NC1CCCCC1	1.8%	7.3%	-10.8%	-5.3%	8.5%	4.6%	-3.8%	-4.3%
Cc1cc2c(c(=O)n1CCN(C)C)C(c1ccc(Br)cc1)C(C#N)=C(N)O2 (centres undefined)	-4.4%	10.9%	-12.9%	-6.4%	5.4%	1.1%	1.0%	2.2%
O=C(NCc1ccc(Cl)cc1)c1ncn[nH]1	-0.9%	6.3%[46.1 µM]	-13.5%	.	-21.0%[46.1 µM]	7.5%	.	2.8%
O=C(CC1C(=O)NCCN1Cc1ccc(F)c(F)c1)NCCn1cccn1 (centres undefined)	0.3%	24.1%[46.1 µM]	14.3%	.	1.4%[46.1 µM]	-9.4%	.	-0.2%
O=C(c1ccco1)N1CCN(C(=O)c2cccc3c2C(=O)N(Cc2cccnc2)C3)CC1	-2.7%	.	-5.5%	-12.8%	-4.5%	-1.8%	0.5%	-0.2%
O=C1c2ccccc2C(=O)N1CCCc1c[nH]c2ccc(Cl)cc12	-15.7%	?	-11.2%	-7.7%	?	17.1%	-10.3%	-12.0%
O=C(CCN1CCc2ccccc21)c1ccc2c(c1)OCCO2	-0.4%	-23.0%	9.9%	7.94µM*	?	?	-1.9%	17.3%
CC(=O)N1CCN(S(=O)(=O)c2cccc(C(=O)OCN3C(=O)c4ccccc4C3=O)c2)CC1	-1.8%	1.3%	-7.4%	.	-0.8%	1.9%	.	4.8%
COc1ccc2c(c1)c(=O)c(S(=O)(=O)c1ccc(F)cc1)cn2CC(=O)Nc1ccc(C)cc1C	.	5.3%[46.1 µM]	16.9%	-3.3%	0.6%[46.1 µM]	.	-0.9%	.
CC1CCCCC1NC(=O)c1cc(=O)[nH]c2ccccc12 (centres undefined)	-3.9%	-12.7%	5.8%	.	9.6%[46.1 µM]	18.3%	.	.
Cc1ccc(C(=O)NC2CCS(=O)(=O)C2)cc1S(=O)(=O)N1CCCC1 (centres undefined)	-2.8%	?	-10.1%	.	-3.5%	3.7%	.	4.8%
Cc1ccc(O)c(NC(=O)c2cc3nc4c(c(C(F)(F)F)n3n2)CCc2ccccc2-4)c1	3.7%	13.8%	?	10µM*	3.9%	-12.4%	-1.8%	12.4%
CCOC(=O)C1CCCc2c1[nH]c1ccc(Cl)cc21 (centres undefined)	-2.9%	?	-7.5%	.	?	27.3%	.	-41.9%
COc1ccc(CNC(=O)c2cccs2)cc1	9.2%	-9.8%	14.8%	4.1%	-1.9%	-4.6%	1.0%	-15.9%
COc1ccccc1NC(=O)c1cc2c(cc1Cl)N1CCCCCC1=NS2(=O)=O	-3.9%	-1.7%	-4.4%	.	3.7%	2.9%	.	.
Cc1ccccc1CN(C)CC(=O)Nc1ccccc1Oc1ccccc1	-20.0%	4.2%	-25.7%	-7.4%	?	-6.2%	-3.4%	-9.9%
COc1ccc(CNC(=O)C(NC(C)=O)C(=O)Nc2ccc(OC)cc2)cc1 (centres undefined)	-13.5%	-1.5%	-21.6%	-8.2%	6.2%[46.1 µM]	-5.3%	0.1%	0.6%
